Ba CapD inh = CapD enzyme inhibition | purified CapD enzyme, fluorescence intensity read-out; stronger effect = lower value; some hits fall short of the stated cut | z-score (no concentration beside the values) | hit rate 0.23% among 140,000 | AID 492967;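 active = z-score under -4 in either of two replicates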;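 note: stock transfer was 100 nL into about 40 µL; score is relative to mean and spread of the plate; one replicate is shown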
AID504770 = E. coli YBA685 growth inhibition, screen for V. cholerae RctB inhibitors; AID 504770; hit rate 0.27% among 130,000; z-score (no concentration beside the values); E. coli YBA685 rctB-dependent plasmid, OD600 growth, 3 h; stronger effect = lower value;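 active = z-score under -2 on both plates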;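 note: wells of about 30 µL received 100 nL stock; score is relative to mean and SD of the test wells; the first replicate is given; strong numbers were not always called active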
Starred values were filed as active, the others as inactive; nt = no result given.

Order of results – AID504770, Ba CapD inh
COc1ccccc1C(O)(C(=O)NN(C(=O)c1ccccc1)c1ccccc1Cl)c1ccccc1OC
 : nt, 0.2
N#Cc1ccccc1NC(=O)CC1Sc2ccccc2NC1=O (centres undefined)
 : -0.05, -0.005
CCOC(=O)c1c(C)oc2nc(COc3ncnc4c3cnn4-c3ccccc3)nc(N)c12
 : -0.25, nt
Cc1nnc(N2C(=O)C3C4C=CC(C4)C3C2=O)s1 (centres undefined)
 : -1.05, -0.96
NC(=O)NC(CC(=O)Nc1ccc(S(N)(=O)=O)cc1)c1ccccc1Cl (centres undefined)
 : -0.05, nt
N#CC1=C(c2ccc(Cl)cc2)COC1=O
 : -1, 2.91
CC(C)(C)c1ccc(/C=C2\C(=O)C3CCN2CC3)cc1
 : -0.45, nt
COc1ccc(-c2nnc(SC)n2-c2ccccc2)cc1
 : 0.2, nt
C/C(=C/C(=O)C(F)(F)F)N1CCc2ccccc2C1
 : 1.7, nt
COc1cc(Br)c(CN2CCCC(COC(=O)NCCc3ccc(F)cc3)C2)cc1OC (centres undefined)
 : nt, -0.445
Cc1ccc2c(c1)N(CC(=O)NC(C)C)C(=O)c1cccnc1O2
 : 1, -0.69
O=C(O)/C=C/c1ccc2c(-c3ccccc3)onc2c1
 : 0.55, 0.555
CS(=O)(=O)c1ccc(S(=O)(=O)NC2CC3CCC2C3)cc1 (centres undefined)
 : nt, -0.405
CCN1CCC(NC2c3ccccc3-c3ccccc32)CC1
 : -0.1, 0.19
Cc1cccc(NCC(O)Cn2cnc3c2c(=O)n(C)c(=O)n3C)c1 (centres undefined)
 : -0.35, -0.11
O=c1/c(=C\c2ccccc2Sc2ccc(Cl)cc2)sc2nc3ccccc3n12
 : nt, -1.18
COC(=O)CCC(=O)c1cc2cc(Br)ccc2o1
 : -0.2, -0.24
CCC(CO)N=CC1=C(O)CC(c2ccccc2)CC1=O (centres undefined)
 : -0.8, 0.075
OC(COCCC12CC3CC(CC(C3)C1)C2)CN1CCCCC1 (centres undefined)
 : 1.85, -0.265
CCOC(=O)c1ccc(NC(=O)NC2OC(CO)C(O)C(O)C2O)cc1 (centres undefined)
 : 1.55, 0.48
Cc1ccc(C)c2[nH]c(=O)c(CN(Cc3ccco3)Cc3nnnn3C(C)(C)C)cc12
 : -0.15, nt
CCOC(=O)C1=c2s/c(=C/c3ccccc3I)c(=O)n2C(N)=C(C#N)C1c1ccccc1I (centres undefined)
 : nt, 0.895
C#C[C@]1(O)CC[C@H]2[C@@H]3CCc4cc(OC)ccc4[C@H]3CC[C@@]21C
 : nt, -0.43
Cc1ccc(S(=O)CCOc2ccc(Cl)cc2Cl)cc1 (centres undefined)
 : 0.75, -0.365
CCOC(=O)c1nn(-c2ccccc2)c(=O)c2c(N)c(C#N)ccc12
 : -0.3, 0.415
O=C(CCC(=O)N1CCC(N(C2CC2)S(=O)(=O)c2cccc(C(F)(F)F)c2)CC1)N1CCOCC1
 : nt, 0.025
CCOc1ccccc1OCCCC(=O)O
 : -0.1, 0.31
Cc1oc(CC(C)C)cc1C(N)=O
 : -1, nt
CC(C)n1c(SCC(=O)NC2CC2)nnc1-c1ccco1
 : -0.35, 0.32
O=C1CC(Nc2ccccc2)C(=O)N1Cc1ccccc1 (centres undefined)
 : 0.5, nt
CN(C)C(=S)c1nc2ccccc2[nH]1
 : -1.4, nt
COC(=O)c1cc(COC(=O)/C=C/c2ccc(F)cc2)oc1C
 : -0.5, nt
CCOC(=O)C1Nc2c(ccc(C(=O)O)c2C)C2C=CCC12 (centres undefined)
 : 0.65, 2.2
O=C(N/N=C/c1ccc(-n2ccnc2)cc1)c1ccc2c(=O)n3c(nc2c1)CCC3
 : -0.2, nt
O=C(c1cc2ccccc2s1)N1CCOCC1
 : 0.3, -0.03
CCNc1ncnc2oc(C)c(C(=O)OCC)c12
 : 0.6, -0.235
CC(C)(C)Sc1ccccc1CN1CCN(C(=O)OCc2ccc(Cl)cc2[N+](=O)[O-])CC1
 : nt, -0.11
CCOc1ccc(OCC)c(NC(=O)C2CCCN2S(=O)(=O)c2cccc3cccnc23)c1 (centres undefined)
 : -0.4, 0.365
O=C(O)CCC(=O)Nc1ccc(S(=O)(=O)Nc2ccc(F)cc2)cc1
 : -0.65, 0.225
Cc1ccc(N=C2NC(=O)CC(C(=O)Nc3cccc4ccccc34)S2)cc1 (centres undefined)
 : -0.45, 0.13
C/C(=N\NC(=O)NC1CCCCC1)c1ccc(OC(F)F)cc1OC(F)F
 : -0.5, nt
Cc1nn(-c2ccccc2)nc1C(=O)NNC(=S)Nc1ccc(Cl)cc1
 : nt, 2.94
Cc1cc2nsnc2c(S(=O)(=O)NCC(=O)O)c1C
 : 0.7, nt
CCCCN(CCCC)CC(O)CN(c1ccc(C)cc1)S(=O)(=O)c1ccccc1 (centres undefined)
 : nt, 0.975
CCOc1ccc(NC(=O)CCCn2c(=O)c3cccn3c3ccccc32)cc1
 : 1.75, -0.595
O=C(CCC(=O)c1cccs1)Nc1ccc(F)c(F)c1F
 : -0.75, 4.04
O=C(NC(=O)N1CCCC1)c1ccc(Cl)cc1
 : -0.75, -0.175
C=C1C2(C(=O)N3CCc4ccccc43)CCC(C2)C1(C)C (centres undefined)
 : -0.75, 0.35
COc1cccc(OC)c1OCC(O)CN1CCC(CN2C(=O)c3cccc4cccc(c34)C2=O)CC1 (centres undefined)
 : nt, 25.4
Cn1cnnc1SCc1ccc(C(=O)N=Nc2c(O)n(C)c3ccccc23)cc1
 : 0, nt
N#CC(Cc1ccccc1)c1ccccc1 (centres undefined)
 : 0.05, -0.705
O=C(CSc1nnc(C23CC4CC(CC(C4)C2)C3)o1)NCCOc1ccccc1
 : 0.2, 0.235
Cc1cc(S(=O)(=O)N2CCSCC2)cc(C)c1F
 : 0.45, 0.625
COc1ccc(C2=NN(CCc3ccccn3)C(=O)C2)cc1
 : 2.3, 7.61
CCN(C(=O)c1cnccc1C(F)(F)F)c1cccc(C)c1C
 : 0.45, -0.08
CC(C(=O)N1c2ccccc2-c2c(ssc2=S)C1(C)C)N1C(=O)c2ccccc2C1=O (centres undefined)
 : nt, -0.165
CC1=C(C(=O)N2CCCCC2)S(=O)(=O)C(NC(=O)CC2CCS(=O)(=O)C2)=C1C#N (centres undefined)
 : 0.5, 0.39
CCOc1ccc(-n2c(SCC(=O)Nc3ccc(Br)cc3)nc3n[nH]c(C)c3c2=N)cc1
 : nt, 2.54
Cc1ccc(-c2nn(-c3ccccc3)cc2/C=C/C(=O)OCC(=O)c2c(N)n(C)c(=O)n(C)c2=O)o1
 : 0.8, nt
O=C(COc1nncc2ccccc12)NC1CCS(=O)(=O)C1 (centres undefined)
 : 1, nt

(next part)
Order of results – AID504770, Ba CapD inh
COc1ncnc2c1cnn2-c1ccccc1
 : -0.05, 0.31
COc1ccc(C(=O)n2c3c(c(=O)n2-c2ccccc2)Cc2ccc(OC)cc2O3)cc1
 : 0.15, -0.205
COc1ccc(-c2cc3ccccn3c2C)cc1
 : 1.4, 21.5
CCc1ccc(NC(=O)COC(=O)c2ccco2)cc1
 : 0.75, nt
CN=C1N=P(NC)(NC)N=C(c2ccccc2)N1
 : -0.35, nt
Cc1nnc(NC2=NCCC2)o1
 : -0.35, nt
COc1cc(C)c(C)cc1S(=O)(=O)NC1CCCCCC1
 : 2.2, -0.58
c1ccc(Oc2ccc(CN3CCCCC3)o2)cc1
 : -0.55, -0.01
CC(=O)N1CCc2cc(C(=O)CN3CC(C)CC(C)C3)ccc21 (centres undefined)
 : 0.85, 13.3
CCOC(=O)c1sc2nc(CC(=O)OC)nc(Nc3ccc(C)cc3Br)c2c1C
 : nt, 2.21
OCC1(CO)CSC(Nc2ccc(F)c(Cl)c2)=N1
 : -1, 0.16
COc1ccc(-n2c(SCC(=O)N3CCCC3)nc3cc(C(=O)NCc4ccco4)ccc3c2=O)cc1OC
 : nt, -0.545
CC(=O)N1C(C(=O)O)CSC1c1ccc(C)cc1 (centres undefined)
 : 1.85, 0.19
O=C(O)CC(Sc1n[nH]c(=S)s1)C(=O)O (centres undefined)
 : nt, 0.345
COc1cccc(/C=N/NC(=O)CC2C(=O)NN=C2C)c1O (centres undefined)
 : 0.4, 0.465
COC(=O)C1SCCN1S(=O)(=O)c1ccc(-c2cc(C(F)(F)F)on2)s1 (centres undefined)
 : -0.95, 9.74
O=C(NCC(c1ccco1)N1CCc2ccccc21)Nc1ccccc1 (centres undefined)
 : 0.15, nt
O=C1/C(=C/c2ccc(-c3ccc([N+](=O)[O-])cc3)o2)C=C(c2ccccc2)N1c1ccc(Nc2ccccc2)cc1
 : nt, -0.99
Cc1cc(C(=O)OCc2csc(CC(=O)Nc3ccccc3C)n2)c(C)o1
 : 0.3, nt
O=C1CCCC2=C1C(c1ccccn1)n1ncnc1N2 (centres undefined)
 : 0.1, nt

An excerpt of these results, tab-delimited.
SMILES	AID504770	Ba CapD inh
CC(=O)N1C(C(=O)O)CSC1c1ccc(C)cc1 (centres undefined)	1.85	0.19
CCOC(=O)c1nn(-c2ccccc2)c(=O)c2c(N)c(C#N)ccc12	-0.3	0.415
COc1ccccc1C(O)(C(=O)NN(C(=O)c1ccccc1)c1ccccc1Cl)c1ccccc1OC	nt	0.2
COc1cc(C)c(C)cc1S(=O)(=O)NC1CCCCCC1	2.2	-0.58
CCN1CCC(NC2c3ccccc3-c3ccccc32)CC1	-0.1	0.19
CC(C)(C)c1ccc(/C=C2\C(=O)C3CCN2CC3)cc1	-0.45	nt

Complete entries, looked up by structure. Order of screens: AID504770	Ba CapD inh
`Cc1cc(C(=O)OCc2csc(CC(=O)Nc3ccccc3C)n2)c(C)o1` is entered as 0.3	nt
`O=C1CCCC2=C1C(c1ccccn1)n1ncnc1N2` (centres undefined) is entered as 0.1	nt
`CC(=O)N1C(C(=O)O)CSC1c1ccc(C)cc1` (centres undefined) is entered as 1.85	0.19

Later entries.
Order of results – AID504770, Ba CapD inh
Cc1cc(C)nc(Nc2ccc(S(=O)(=O)Nc3ccccn3)cc2)n1
 : 0.5, -0.865
CNC(=O)c1ccsc1NC(=O)c1ccc(F)cc1
 : -0.7, nt
O=C1CCCC1Sc1nnc(-c2ccncc2)n1-c1ccc(F)cc1 (centres undefined)
 : -0.8, nt
CCSc1nnc(C2CCCN(CC(=O)N3CCN(c4ccccc4)CC3)C2)n1CC (centres undefined)
 : -1.15, nt
O=C(Cc1n[nH]c(=O)c2ccccc12)N/N=C/C=C/c1ccccc1
 : -0.45, 0.07
Cc1ccc(SCC(=O)NC2CC2)cc1
 : -0.5, -0.01
ClC1=C(Cl)C2(Cl)C3C4CC(C5OC45)C3C1(Cl)C2(Cl)Cl (centres undefined)
 : nt, 0.005
CC1(c2ccccc2)CC1(Br)Br (centres undefined)
 : 0, -0.2
CCOc1cccc2c1OC1(CCC(C)CC1)N1N=C(c3cccnc3)CC21 (centres undefined)
 : nt, -0.225
O=C(Nc1ccc(S(=O)(=O)N(C2CC2)C2CCN(Cc3ccccc3)CC2)cc1)c1cccc(C(F)(F)F)c1
 : nt, -0.74
CC(=O)CC1(O)C(=O)N(CN2CCOCC2)c2ccccc21 (centres undefined)
 : nt, -0.135
Cc1cc(C(=O)N=C(N)c2ccc(Cl)cc2)no1
 : -0.8, 0.15
CC1=C(C(=O)OCc2ccc3c(c2)OCO3)C(c2ccccc2OC(C)C)NC(=O)N1 (centres undefined)
 : nt, -0.545
CCC1(CC)C(=O)NC(=O)N=C1N
 : 1.15, 0.44
CCOC(=O)CSc1ccc2nnc(-c3ccccc3)n2n1
 : -0.05, 1.85
CCNC(=O)c1ccc(OCc2c(C)noc2C)c(OC)c1
 : -0.65, nt
COC(=O)CC1C(=O)NCCN1S(=O)(=O)c1c(C)c(C)c(C)c(C)c1C (centres undefined)
 : 0.75, nt
O=C1CCCC2(O)C1C(c1ccc(Cl)cc1Cl)NC(=O)N2Cc1ccccc1 (centres undefined)
 : 1.4, nt
Fc1cccc(/C=N/n2cnnc2)c1
 : 0.25, -0.74
CCCCCCCCCN=Cc1sc2ccc(OCC)cc2c1O
 : nt, -0.93
COC(=O)c1ccc(OCc2c(C)noc2C)cc1
 : -1.8, 0.11
Cc1n[nH]c(C)c1Oc1ccc(Cl)cc1
 : 0.15, 0.055
CCc1cc2c3c(c1)C1(C(=O)N3C(C)(C)CC2C)C(C#N)=C(N)N2C(=C1C#N)Nc1ccccc12 (centres undefined)
 : -0.05, -0.08
CCc1nnc2c(NC)nc3ccccc3n12
 : -0.25, 0.93
Cc1ccc(S(=O)(=O)NN=C(Cn2nnc3ccccc32)Cn2nnc3ccccc32)cc1
 : 0.15, nt
Cc1sc2ncnc(SCC(=O)Nc3sc4c(c3C#N)CCCC4)c2c1C
 : nt, -0.125
Cc1ccc(Nc2nc(N)nc(CSc3cc(C)c4ccccc4n3)n2)cc1
 : 0, nt
COC(=O)c1ccc(C(=O)Nc2ccc3nc(C4CCCCC4)[nH]c3c2)cc1
 : -0.9, -0.63
COc1ccc(OCCN2CCN(C3CC(=O)N(CCC(C)C)C3=O)CC2)cc1 (centres undefined)
 : 1.45, nt
CC12CCC3C(CCC4CC(=O)CC43C)C1CCC2O (centres undefined)
 : -0.2, nt
CCOc1ccc(NS(=O)(=O)c2cc(C(=O)N3CCN(C)CC3)ccc2NCCc2ccc(Cl)cc2)cc1
 : nt, 0.42
CCOC(=O)c1nnn(-c2cc(Cl)cc(Cl)c2)c1Sc1ccccn1
 : -0.45, -0.325
C=CCN1C(=O)/C(=c2\sc3n(c2=O)C(c2ccccc2Cl)C(C(=O)OC)=C(C)N=3)c2ccccc21 (centres undefined)
 : nt, -0.155
